HSD17B inh – qHTS Assay for Inhibitors of HSD17B4, hydroxysteroid (17-beta) dehydrogenase 4 | 3-hydroxyacyl-CoA dehydrogenase type-2 (Homo sapiens), Q99714 | recombinant HSD17B10, NADH fluorescence kinetic; many of its hits are not listed in these tables | Potency, µM (top dose mostly 57.1 µM), for the others: top-dose activity change, negative = inhibition, actives largely listed as inhibitors | 75,000 compounds, 7.6% hits | AID 893, 2007; active means well fitted inhibition curve with a large enough effect; inconclusive means small, poorly fitted or top-dose-only effect; inactive means no such curve, though single readings can be large or run the other way;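 further: the protocol describes HADH2 (HSD17B10) and not the HSD17B4 of the title; nearly all actives have a fitted effect of over 70% in size; most hits overshoot -100% by far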
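Activity followed as NADH fluorescence increase (ex 360, em 450 nm) every 30 seconds for 4 min, using final 90 uM beta-hydroxybutyryl CoA and 1 mM NAD+. Recombinant His-tagged enzyme, 20 nM, pH 9.0 Tris buffer, 15 min compound preincubation.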
* marks the source's active call; other numbers are inactive results; ? = inconclusive; & = joins results of further samples; [ ] = dose if it differs, or a comment. On the % scale 0 is the no-effect control and ±100 the full control effect; potency means the concentration at half of the fitted maximal effect. Not all compounds are listed, so the mix of outcomes need not match the whole.

SMILES | HSD17B inh
Cc1ccccc1-c1c(C)oc2cc(O)ccc2c1=O | 32µM*
CCOC(=O)C1=C(c2ccccc2)NC(SC)=C(C#N)C1c1ccco1 (stereo not drawn) | -14%
CC(C)N1CC(O)=C(c2ccccc2)C1=N | -2%
O=C(Cn1nc(-c2ccc(Cl)cc2)ccc1=O)NCCCN1CCN(Cc2ccccc2)CC1 | -2%
COc1cc(OC)c(NC(=O)CCNS(=O)(=O)c2cc(Br)cnc2N)cc1Cl | -12%
COC(=O)CC1Oc2cc3oc4c5ccccc5oc(=O)c4c3cc2O1 (stereo not drawn) | 25µM*
O=C(c1ccco1)N1CCC2(CCCN(c3ccncc3)C2)CC1 | 7%
CC(C)COC(=O)C1C(=O)CC(C)(O)C(C(=O)OCC(C)C)C1c1cccnc1 (stereo not drawn) | 6%
Cc1ccc(C(C)C)c(OCC(=O)Nc2ccccc2N2CCN(C)CC2)c1 | 14%
Cc1occc1C(=O)Nc1ccc2c(c1)OCCO2 | 1%
O=C(NCCCNCc1ccccc1)c1ccc(/C=N/O)nc1 | -7%
Cc1cccc(NC(=O)c2ccccn2)c1C | -3%
Cc1ccc(S(=O)(=O)Nc2ccc3nc(-c4cccn4C)[nH]c3c2)cc1 | -2%
C=CCN1C(=O)N(/C=C/C)c2cccc3cccc1c23 | -26%
COc1ccc(O[C@H]2C=C[C@@H](c3ccccc3)O[C@H]2COC(=O)CC/C(C)=N\OC[C@@H](O)COCc2ccco2)cc1 | -2%[11.4 µM]
Cc1c(N)cccc1Cl | 5%
C=CCNc1nc(-c2ccc(OC)cc2OC)cs1 | 0%
CCc1nc2sc(C)c(C)c2c(=O)n1CCO | -8%
COc1cc(COc2cc(N)c(Cl)cc2C(=O)CCC2CCN(CCNS(C)(=O)=O)CC2)cc(OC)c1 | -8%
COc1ccc(CC(C(=O)Nc2cc(C)ccc2C)/C(N)=N/O)cc1 (stereo not drawn) | 16%

Single entries from above:
Result of Cc1ccc(S(=O)(=O)Nc2ccc3nc(-c4cccn4C)[nH]c3c2)cc1 under HSD17B inh: -2%
Result of Cc1cccc(NC(=O)c2ccccn2)c1C under HSD17B inh: -3%
Result of COc1ccc(O[C@H]2C=C[C@@H](c3ccccc3)O[C@H]2COC(=O)CC/C(C)=N\OC[C@@H](O)COCc2ccco2)cc1 under HSD17B inh: -2%[11.4 µM]
Result of C=CCN1C(=O)N(/C=C/C)c2cccc3cccc1c23 under HSD17B inh: -26%
Result of COc1ccc(CC(C(=O)Nc2cc(C)ccc2C)/C(N)=N/O)cc1 (stereo not drawn) under HSD17B inh: 16%

Quoted from the results shown for reference:
SMILES | HSD17B inh
O=C(NCCCNCc1ccccc1)c1ccc(/C=N/O)nc1 | -7%
Cc1cccc(NC(=O)c2ccccn2)c1C | -3%
Cc1ccc(S(=O)(=O)Nc2ccc3nc(-c4cccn4C)[nH]c3c2)cc1 | -2%
C=CCN1C(=O)N(/C=C/C)c2cccc3cccc1c23 | -26%
COc1ccc(O[C@H]2C=C[C@@H](c3ccccc3)O[C@H]2COC(=O)CC/C(C)=N\OC[C@@H](O)COCc2ccco2)cc1 | -2%[11.4 µM]
Cc1c(N)cccc1Cl | 5%
C=CCNc1nc(-c2ccc(OC)cc2OC)cs1 | 0%

The list continues:
SMILES | HSD17B inh
CCCN1CCN(CCCNC(=O)C2CCN(c3nnc(-n4cccc4)s3)CC2)CC1 | -3%
COc1ccc(S(=O)(=O)N2CCOCC2)cc1C(=O)Nc1nc2ccccc2s1 | ?
Cc1ccc(C(=O)Nc2ccccc2C(=O)NC(CC(=O)O)C(=O)O)cc1 (stereo not drawn) | 12%
COc1ccc(NC(=O)N2CC3(CCNCC3)C2)cc1 | 8%
Cc1n[nH]c(C)c1S(=O)(=O)N(CC(=O)Nc1ccc2c(c1)OCCO2)c1ccc(C(C)C)cc1 | 2%
O=C(Nc1cccc2c1CCCC2)c1ccco1 | -2%
Cn1c(Oc2ccccc2NCc2cc(Br)ccc2O)cc(=O)n(C)c1=O | -1%
O=C(CN(c1ccccc1)S(=O)(=O)c1ccc(F)cc1)N1CCCCCC1 | -4%
FC(F)(F)c1ccc(C2[C@H]3CN(Cc4ccc(-c5ccccc5)cc4)[C@H](c4ccccc4)C34CC2(c2ccccc2)C4)cc1 (stereo partly drawn) | 16%
C=CCSc1nc(N)c(C#N)c(-c2ccc(C)cc2)c1C#N | ?
CCOC(=O)c1[nH]c2ccc(C)cc2c1N=C(C)N(C)C | -29%
O=c1cnc2cnc(Oc3cccc(Cl)c3)nc2n1C1CC1 | -4%
FC(F)(F)C(Oc1nc(NC2CCCCC2)nc(N2CCOCC2)n1)C(F)(F)F | 3%
O=C1C2C3C=CC(C3)C2C(=O)N1Cc1ccccc1 (stereo not drawn) | -9%
CCOC(=O)c1c(C)[nH]c(C(=O)CN2CCOCC2)c1C | -5%
Cc1cc(NC(=O)c2cc(CC(C)C)on2)n(-c2ccccc2)n1 | -3%
O=c1cnc2cnc(N3CCNCC3)nc2n1Cc1cccs1 | -27%
O=C(NCc1ccco1)c1cccs1 | -2%
CN=C(NC#N)NCCSCc1csc(N=C(N)N)n1 | 2%
Cc1nn(CC(=O)Nc2ccc3c(c2)nc(CN2CCCC2)n3C)c(=O)c2ccccc12 | -16%
CCCc1cc(C(=O)N(C2CCCCC2)C2CCCCC2)no1 | 1%
CCOC(=O)c1cc2occc2n1CC(=O)NC1CCC(C)CC1 (stereo not drawn) | 5%
CN1CCN(S(=O)(=O)c2ccc(N3CCN(S(=O)(=O)/C=C/c4ccccc4)CC3)nc2)CC1 | 6%
CCc1ccccc1Nc1nc(N)nc(CSCC(=O)c2cc(C)n(C)c2C)n1 | -10%
Cc1ccc(S(=O)(=O)N[C@H](CO)C(=O)O)cc1 | 4%[11.4 µM]
c1cnc(NCCNc2ncccn2)nc1 | -11%
COc1ccc2c(c1)c(C(O)CN1CCN(Cc3ccc4c(c3)OCO4)CC1)c(C)n2C (stereo not drawn) | -26%
COC(=O)c1cccc(NC(=O)c2cc3sccc3n2C)c1 | -9%
CCc1ccccc1N(CC)C(=O)CCc1nc(-c2ccc(C)cc2)no1 | -3%
Cc1noc(C)c1CSc1nc2ccccc2s1 | -5%

An excerpt of these results, with tabs.
SMILES	HSD17B inh
O=c1cnc2cnc(N3CCNCC3)nc2n1Cc1cccs1	-27%
O=C1C2C3C=CC(C3)C2C(=O)N1Cc1ccccc1 (stereo not drawn)	-9%

Going on with the list:
SMILES | HSD17B inh
CCn1c(SCC(=O)NCCc2ccccc2)nnc1-c1ccco1 | -16%
CCOC(=O)c1c(NC(N)=O)sc(C)c1C | -2%
Cc1nnc2ccc(N3CCN(C(=O)c4ccccc4)CC3)nn12 | 2%
COc1ccc(-c2noc(CCC(=O)NCCN3CCN(c4ccccc4F)CC3)n2)cc1 | 0%
CC(C)(C)C1CCC2(CC1)NC(CO)(CO)CO2 (stereo not drawn) | 8%
Cn1c(C(F)(F)F)nc2c(=O)oc3ccccc3c21 | 2%
CCN1C(=O)c2ccccc2S(=O)c2ccc(C(=O)NCc3ccccn3)cc21 (stereo not drawn) | 2%
C=C(C)Cn1c(C2CC(=O)N(c3ccccc3F)C2)nc2ccccc21 (stereo not drawn) | 0%
CCc1ccc(NC(=O)c2cc(CC(C)C)on2)cc1 | 7%
O=C1c2ccccc2C(O)N1Cc1ccc2c(c1)OCO2 (stereo not drawn) | -2%
CCOCC(O)CS(=O)Cc1ccccc1 (stereo not drawn) | -4%
O=c1cnc2cnc(N3CCOCC3)nc2n1C[C@H]1CCCO1 | ?
CS(=O)(=O)N(CCc1ccccc1)CC(=O)N1CCN(c2ccccc2F)CC1 | 7%
COc1cc2c(cc1NC(=O)c1cncc(Br)c1)oc1ccccc12 | 134%[activator]
CN(C(=O)c1ccno1)c1nnc(-c2cccnc2)s1 | ?
CCC(/C=C/C(C)C1CCC2C3CCC4=CC(=O)CC[C@@]4(C)C3CC[C@@]12C)C(C)C (stereo partly drawn) | 4%
O=C(NCCC1=CCCCC1)C1CCN(Cc2cnn(-c3ccccc3)c2-n2cccc2)CC1 | 5%
CN(C)c1ccc(NC(=O)CSc2nc3ccccc3c(=O)n2C2CCCCC2)cc1 | -6%
C[C@H](Oc1ccc(Oc2cnc3ccc(Cl)cc3n2)cc1)C(=O)O | 3%[11.4 µM]
Cn1c(-c2ccccc2)cnc1SCC(=O)NCc1ccco1 | -17%
COc1cccc(-c2nnc(SCC(=O)N3CCCc4ccccc43)o2)c1 | ?
CCCn1c(SCC(=O)Nc2ccccc2N2CCCCC2)nc2c1c(=O)n(C)c(=O)n2C | -8%
Cc1ccc2nc(NC(=O)C3CCCN(S(=O)(=O)c4cnc[nH]4)C3)sc2c1 (stereo not drawn) | 5%
c1ccc(-c2csc(N3CCCCCC3)n2)cc1 | -23%
O=C(O)CNC(=O)c1ccc(OC(F)F)cc1 | 5%
O=c1[nH]c(NCc2ccco2)nnc1Cc1ccccc1Cl | -3%
Nc1c(C(=O)Nc2ccc3c(c2)OCCO3)nnn1CCc1ccccc1 | 2%
CCn1c(C)c(C(C)=O)c(N2CCCC2)nc1=S | -5%
COc1ccc(-n2c(SCC(=O)N3CCCC(C)C3)nnc2-c2cccnc2)cc1 (stereo not drawn) | 3%
O=C(CSc1nnc(Cn2c(=O)sc3ccccc32)n1-c1ccccc1)N1CCCC1 | -2%
Cc1c(NC(=O)c2ccc(N3C(=O)C4C5C=CC(C5)C4C3=O)cc2)c(=O)n(-c2ccccc2)n1C (stereo not drawn) | 2%
O=C(CCN1C(=O)c2ccccc2C1=O)N1CCCCCC1 | -9%
CCn1nnnc1-c1ccc(OC)c(S(=O)(=O)Nc2ccc(OC)cc2)c1 | 5%
Cc1c(C(=O)NC(C)c2ccncc2)oc2ccccc12 (stereo not drawn) | 23%
COc1cc(CN2CCN(CCOCCO)CC2)cc(OC)c1OC | -2%
O=C1OC(C2=CCCCC2)=NC12CC2 | 12%[11.4 µM]
COc1ccc(OCc2nn3c(-c4cccc(OC)c4)nnc3s2)cc1 | -2%
CCCN(CCC)C(=O)CSc1nc2ccccc2c(=O)n1C1CCCC1 | -3%
Cc1cc(=O)[nH]c2c(C)c(Cl)ccc12 | 1%
COc1cc(S(=O)(=O)N2CCOCC2)ccc1F | -2%
O=C1CSC2=NCN(c3ccc4c(c3)OCO4)CN12 | -9%
COC(=O)c1ccc(-n2c(C)cc(/C=N/n3cnnc3)c2C)cc1 | -6%
CC1(C)CC[C@]2(C(=O)O)CC[C@@]3(C)C(=CCC4[C@@]5(C)CCC(O)C(C)(C)C5CC[C@@]43C)C2C1 (stereo partly drawn) | 0%
CCN(CCO)Cc1cc(=O)oc2c(C)c(C)ccc12 | -24%
COc1ccc(C2CC(c3cccc(Cl)c3)n3nc(N)nc3N2)cc1 (stereo not drawn) | 4%
COc1ccc(-c2oc3cc(OC)c(OC(C)=O)c(OC)c3c(=O)c2OC)cc1OC(C)=O | 40µM*
Cc1cc(C)c(C(N)=O)c(NCCc2ccccc2)n1 | -1%
CCCCCCn1c(N2CCC(C(N)=O)CC2)nc2c1c(=O)n(C)c(=O)n2C | 6%
COC(=O)Nc1nnc(CCc2ccccc2)s1 | 17%
Cc1ccc(C)c(N2CCN(C(=O)CN(C)S(=O)(=O)c3cnc[nH]3)CC2)c1 | 1%
The list goes on:
SMILES | HSD17B inh
CCOc1ccc(CCNC(=O)c2nnc(Cc3ccc(F)cc3)o2)cc1OCC | 1%
CCOc1cc(C2C(C(=O)OCC(C)C)=C(C)N=C3SCCC(=O)N32)ccc1OC(C)=O (stereo not drawn) | 4%
Cc1ccc(N(CC(=O)NC2CCCC2)C(=O)CCCC(=O)Nc2ccccn2)cc1C | 2%
CCc1nnc(SCC(=O)NC2CCCCC2)nc1CC | 5%
Cc1ccccc1N1OC2C(=O)N(c3ccc(F)cc3)C(=O)C2C1c1ccccn1 (stereo not drawn) | 6%
Cc1cc2ccccn2c1C(=O)c1ccncc1 | -2%
COc1ccc(CNS(=O)(=O)c2ccc(S(=O)(=O)N3CCCCC3)cc2)cc1 | -5%
COc1ccc(O[C@H]2C=C[C@@H](c3ccccc3)O[C@H]2COC(=O)CC/C(C)=N\O[C@@H](C)c2cn([C@H]3COC[C@H]3O)nn2)cc1 | 32%[activator][11.4 µM]
O=C(NCc1ccccn1)Nc1ccc2c(c1)OCO2 | -7%
COC(=O)c1ccccc1NC(=O)c1sc(=S)n(C)c1N | -16%
Cn1c(=O)c2c(nc(CN3CCN(C(=O)c4ccco4)CC3)n2CCc2ccccc2)n(C)c1=O | -11%
Cc1nc2cnc(OCc3ccccc3)nc2n(Cc2ccc(F)cc2)c1=O | -22%
COc1ccc(Cn2c(CCC(=O)Nc3ccc(CC#N)cc3)nc3cccnc32)cc1 | -5%
COc1ccc(-n2c(Cn3c(=O)sc4ccccc43)nnc2SCC(=O)N2CCCCC2)cc1 | -2%
COc1ccc(C(=O)CSc2nc3nc(C)cc(C)c3c(=O)[nH]2)cc1OC | 13%
c1cn(-c2ncnc3sc4c(c23)CCCC4)cn1 | ?
COc1c(O)cc(O)cc1O | -7%
CN(C)S(=O)(=O)c1ccc(C(=O)Nc2cccc(C(=O)O)c2)cc1 | -11%
COc1cc(Br)cc(-c2nc3c(c(=O)[nH]c(=O)n3Cc3ccccc3)n2C)c1O | -10%
N#Cc1c(NC(=O)CSc2nc3ccccc3c(=O)n2Cc2ccco2)sc2c1CCCC2 | -29%
CC(=O)NCCc1c[nH]c2ccc(O)cc12 | 4%&-5%
CCOc1cccc(C=Nc2cc(C)cc(C)c2O)c1O | 4µM*
CC1=C(/C=C/C(C)=C/C=C/C(C)=C/C(=O)Nc2ccc(O)cc2)C(C)(C)CCC1 | -21%

Screens (PubChem BioAssay)
